Source: PubChem (Southern Research Specialized Biocontainment Screening Center)
Mtb bLac sens = beta-lactam sensitization of Mtb H37Rv, H37Rv; inhibition, % at 25 µM; AID 434955, 2010; hit rate 0.27% among 330,000; M. tuberculosis H37Rv growth with meropenem, percent inhibition; hits of this screen are not shown here;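 active = about 74% or more and at least 40 points above the plate without the antibiotic, then above 30% in a dose series; inconclusive = first-round hits that could not be retested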;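 also: growth measured after seven days incubation then overnight dye step; 0% = bacteria only wells and 100% = bacteria with antibiotic; twin plates without the antibiotic show which effects depend on it; some results filed as inactive read as strong as hits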
An asterisk follows results filed as active; ? = inconclusive.

mol	Mtb bLac sens
COCCNCc1ccccc1[N+](=O)[O-]	-2
CCc1noc(C)c1C(=O)Nc1nnc(C(CC)CC)s1	-2
COc1ccccc1NS(=O)(=O)c1ccc(C(=O)N2CCCCCCC2)cc1	-2
CN1CCCC(OC(=O)c2cccc(Br)c2)C1 (stereo not given)	-2
C/C(=N\NC(=O)c1cc(C)oc1C)c1ccc2ccccc2c1	-7
COc1ccc(C(C)=O)cc1COC(=O)CCC(=O)c1cccs1	4
COC(=O)Cc1ccc(OC(=O)C2CCN(S(=O)(=O)c3ccc(OC)c(OC)c3)CC2)cc1	47
COc1ccc(OC)c(-c2nn(-c3ccccc3)cc2C(=O)NCC(c2ccco2)N2CCCC2)c1 (stereo not given)	3
CC(Sc1n[nH]c(N)n1)C(=O)Nc1cccc2ccccc12 (stereo not given)	-2
CCN(CC(=O)Nc1c(F)cccc1F)C(=O)C1CCN(C(=O)Nc2ccccc2)CC1	12
Cc1cccc(NC(=O)CN2CCN(C(=O)c3ccc(OCc4cn5ccccc5n4)cc3)CC2)c1C	3
CC(C)c1nnc(NC(=O)COc2ccc3c(c2)OCO3)s1	-15
NS(=O)(=O)c1ccc(CCNC(=O)COC(=O)Cc2ccc([N+](=O)[O-])cc2)cc1	-7
CCOC(=O)c1cc(CC)sc1NC(=O)COC(=O)c1cnccn1	4
CN(C(=O)COC(=O)CN1C(=O)c2cccc([N+](=O)[O-])c2C1=O)c1ccccc1	10
N#Cc1ccc(NC(=O)COC(=O)c2cccnc2Cl)cc1	-3
C=C[C@@H]1c2ccccc2N(S(=O)(=O)c2ccc(C)cc2)[C@H](c2ccc(C(=O)OC)cc2)C1(C#N)C#N	-6
CCOC(=O)Cc1csc(NC(=O)CSc2nc(C)cc(C)n2)n1	-1
CCN(CC(=O)NCc1ccc(Cl)cc1)C(=O)c1cc(OC)cc(OC)c1	2
O=[N+]([O-])c1ccc(CSc2ncnc3c2ncn3[C@@H]2O[C@H](CO)[C@@H](O)[C@H]2O)cc1	-11
COc1ccc(Cl)cc1C(=O)OCC(=O)Nc1cccnc1Cl	64
CN(CC(=O)Nc1ccccc1Br)CC(=O)Nc1ccccc1-c1ccccc1	5
O=C(O)c1ccc(CNC(=O)c2ccc(S(=O)(=O)N3CCCCC3)cc2)cc1	-5
O=C1C=C(/C=C/c2ccccc2)C[C@@H](c2ccc3c(c2)OCO3)C1	13
O=C(CN1CCCCC1)Nc1cc(S(=O)(=O)N2CCOCC2)ccc1N1CCCC1	-13
CCOc1ccc(Br)cc1C1=CC(=O)C[C@H](c2ccc(OC)cc2)C1	90
Cc1cccc(C)c1NC(=O)CNC(=O)c1ccc(S(=O)(=O)NCc2ccco2)cc1	-4
O=C(O)c1cccc(Nc2nc3ccccc3nc2NS(=O)(=O)c2ccc(F)cc2)c1	2
CCN(C(=O)COC(=O)c1ccc([N+](=O)[O-])o1)c1cccc2ccccc12	96
C[C@@H]1NC(=O)[C@@]2(C)[C@@H](c3ccccc3)[C@H]3COc4ccc(Cl)cc4[C@@H]3N2C1=O	-8
O=c1c(O[C@H]2O[C@@H](CO)[C@H](O)[C@@H](O)[C@@H]2O)c(-c2ccc(O)cc2)oc2cc(O)cc(O)c12	4
CN1CC(=O)N(CC(=O)Nc2ccc(OCc3ccccc3)cc2)C1=O	0
CC(C)N(C(=O)[C@H]1CC(CC(=O)NC(C)(C)C)C(=O)N2CCc3c([nH]c4ccccc34)[C@]12C)C(C)C (stereo not given in full)	1
O=C(Nc1ccc2nc(N3CCOCC3)sc2c1)c1ccccc1	25
C=C1C[C@H](O[C@@H]2O[C@H](CO)[C@@H](O)[C@H](O)[C@H]2O)[C@@H]2[C@H](OC(=O)[C@H]2C)[C@H]2[C@H](C)[C@H](O)C[C@@H]12	-3
CC(Sc1nnc(NC2CC2)s1)C(=O)Nc1ccc(S(N)(=O)=O)cc1 (stereo not given)	7
Cc1ccc(NC(=O)CSc2ncn[nH]2)c([N+](=O)[O-])c1	-2
Cc1nc2cc(NS(=O)(=O)c3cccc4cccnc34)ccc2s1	8
CC(C)C(=O)Nc1cccc(C(=O)Nc2ccc(S(=O)(=O)N3CCOCC3)cc2)c1	-1
O=C(Nc1ccccc1C(F)(F)F)C1CCN(C(=O)c2cccs2)CC1	-1
CC(C)c1ccc(NC(=O)COC(=O)c2nn(C)c(=O)c3ccccc23)cc1	-6
CC(C)(C)OC(=O)NCCCCCNC(=O)c1[nH]cnc1C(=O)Nc1ccon1	5
O=S(=O)(Nc1cccc(S(=O)(=O)N2CCCCC2)c1)c1ccccc1F	1
CC(=O)OC(C)(C)/C=C/C(=O)[C@](C)(O)C1[C@H](O)C[C@@]2(C)C3CC=C4C(C[C@H](O)C(=O)C4(C)C)[C@]3(C)C(=O)C[C@]12C (stereo not given in full)	2
CC(=O)c1ccc(NC(=O)CN2C(=O)NC3(CCc4ccccc43)C2=O)cc1 (stereo not given)	24
COc1ccccc1OCCC(=O)OCC(=O)Nc1ccc2c(c1)OCO2	-3
O=C(NNC(=O)c1ccc(F)c(S(=O)(=O)N2CCOCC2)c1)c1ccc(Br)cc1	-7
Cc1ccc(C)c(C(=O)OCC(=O)Nc2cccc(S(=O)(=O)N3CCCCC3)c2)c1	0
CON(C)C(=O)CC(CN(Cc1ccccc1)C(=O)OC(C)(C)C)c1ccc(Cl)cc1 (stereo not given)	-7
CC1CCN(C(=O)c2[nH]cnc2C(=O)Nc2ccon2)CC1	-2
Cn1cccc1C1CCCN1CC(=O)Nc1ccc(F)c(F)c1F (stereo not given)	3
CC(C)(C)c1ccc(S(=O)(=O)N2CCN(C(=O)C3=COCCO3)CC2)cc1	-10
CC(=O)N1CCN(S(=O)(=O)c2cccc(C(=O)NC3CC3)c2)CC1	7
Cn1c(-c2ccccc2F)cc2onc(-c3ccccc3)c2c1=O	-7
O=C1O[C@H]([C@@H](O)CO)C(O)=C1O	-1
O=C(Nc1ccccc1C(=O)NC1CC1)c1ccccc1	-4
COc1cccc(NC(=O)CN(C)C(=O)CCNS(=O)(=O)c2ccc(C)cc2)c1	-5
O=C(Cn1cnc2ccccc2c1=O)NNC(=O)c1ccccc1F	-7
CCOc1cc(C(=O)Nc2ccc(S(=O)(=O)Nc3onc(C)c3C)cc2)cc(OCC)c1OCC	4
Cc1noc(C)c1C(=O)OC(C)C(=O)NC(C)c1ccc(Cl)cc1Cl (stereo not given)	-6

(listing goes on)
mol	Mtb bLac sens
Cc1cc(C)n2nc(SCC(=O)N3CCN(c4ccc(F)cc4)CC3)nc2n1	4
Cc1ccc(N)c([N+](=O)[O-])c1	-6
Cc1ccc2c(c1)-n1c(nc3cc(F)ccc3c1=O)C(Cc1ccccc1)NC2=O (stereo not given)	-7
O=C(COC(=O)Cc1ccc(Br)cc1)NC1CC1	3
Cc1cc(C)cc(N(CCC#N)C(=O)CSc2nc3ccccc3c(=O)[nH]2)c1	-11
Cc1c(N(C)CS(=O)(=O)O)c(=O)n(-c2ccccc2)n1C	-3
CN(C)C(CNC(=O)CCNS(=O)(=O)c1ccccc1C(F)(F)F)c1ccccc1 (stereo not given)	4
C[C@H]1NC(=O)[C@@]2(C)[C@H](c3ccccc3)[C@H]3COc4ccccc4[C@@H]3N2C1=O	3
CC(C)CC1NC(=O)c2ccc(Cl)cc2-n2c1nc1cc(F)ccc1c2=O (stereo not given)	3
CC1CN(CCCCSc2ccc(Cl)cc2)CC(C)O1 (stereo not given)	2
CN(CCOCCOc1ccc(F)cc1)Cc1ccccc1	-10
Nc1ccc(C(=O)N2CCN(S(=O)(=O)c3ccc4c(c3)OCCCO4)CC2)cc1[N+](=O)[O-]	2
C=CC[C@H](CC(=O)OC(C)(C)C)C(=O)OC[C@@H]1CCCN1C(=O)[C@@H](CC=C)CC(=O)NCCO	6
COc1ccc(NC(=O)c2ccc(S(=O)(=O)N3CCCCC3)cc2)cc1OC	-2
O=C1c2cc(Br)ccc2N(Cc2ccc(Br)cc2)S(=O)(=O)C1c1cc(Cl)c(Cl)cc1[N+](=O)[O-] (stereo not given)	1
CCN(CC(=O)NCc1cccs1)C(=O)c1ccc(C)o1	0
COc1ccc(NC(=O)CNC(=O)c2sc3ccccc3c2Cl)c(OC)c1	10
C[C@@H]1CCCCCCCCC(=O)OCCN(C(=O)OC(C)(C)C)[C@H](C)CCCCCCCCC(=O)OCCN(C(=O)OC(C)(C)C)[C@H](C)CCCCCCCCC(=O)OCCN1C(=O)OC(C)(C)C	-3
C[C@@H]1CN([C@@H](C)CO)C(=O)c2cccc(NS(=O)(=O)c3ccc(F)cc3)c2O[C@H]1CN(C)C(=O)NC1CCCCC1	6
O=C(COc1ccc(Cl)c(Cl)c1)NC1CCS(=O)(=O)C1 (stereo not given)	1

Rewritten field by field: 4 of the compounds above.
smiles: CC(C)CC1NC(=O)c2ccc(Cl)cc2-n2c1nc1cc(F)ccc1c2=O (stereo not given)
  Mtb bLac sens = 3
smiles: C[C@@H]1CCCCCCCCC(=O)OCCN(C(=O)OC(C)(C)C)[C@H](C)CCCCCCCCC(=O)OCCN(C(=O)OC(C)(C)C)[C@H](C)CCCCCCCCC(=O)OCCN1C(=O)OC(C)(C)C
  Mtb bLac sens = -3
smiles: COc1ccc(NC(=O)c2ccc(S(=O)(=O)N3CCCCC3)cc2)cc1OC
  Mtb bLac sens = -2
smiles: O=C(COc1ccc(Cl)c(Cl)c1)NC1CCS(=O)(=O)C1 (stereo not given)
  Mtb bLac sens = 1

Later entries
mol	Mtb bLac sens
Cc1cc(C)c(NC(=O)CNC(=O)c2cc(C3CC3)nn2-c2ccccc2)c(C)c1	1
CCOc1ccccc1Nc1nnc(SCC(=O)NC2CCS(=O)(=O)C2)s1 (stereo not given)	-7
COc1ccc(C2=NOC(Cn3nc(-c4ccccc4C)cc3C(=O)O)C2)cc1 (stereo not given)	18
O=C(COc1ccc(Cl)cc1Br)NCC(c1ccco1)N1CCCC1 (stereo not given)	-8
CC1Cc2ccccc2N1C(=O)COC(=O)c1ccc(Cl)c(S(=O)(=O)N2CCOCC2)c1 (stereo not given)	1
CCn1c(SCC(=O)N2CCN(C)CC2)nc2c1c(=O)n(C)c(=O)n2C	2
Cc1ccc(NC(=O)COC(=O)CN2CCCCCC2=O)cc1C	4
COc1ccc(S(=O)(=O)Nc2ccc3c(c2)C(=O)N([C@H](C)CO)C[C@H](C)[C@@H](CN(C)S(=O)(=O)c2cccs2)O3)cc1	1
CC(C)(C)NC(=O)CN(Cc1ccco1)C(=O)CCC(=O)Nc1nccs1	4
COc1ccc(C(=O)OCc2ccccc2F)cc1S(=O)(=O)N1CCCC1	-5
O=[N+]([O-])c1cccc2c([N+](=O)[O-])cccc12	5
O=C(CNS(=O)(=O)c1ccc2c(c1)OCCCO2)N1CCN(c2ccc(F)cc2)CC1	-5
O=C(COC(=O)/C=C/c1ccccc1Cl)NC1CCCC1	-3
O=C(OCC(=O)c1ccc[nH]1)c1ccc(Cl)c(Cl)c1	-1
C[C@@]12C(=O)Nc3ccc(Br)cc3C(=O)N1[C@H]1c3cc(Br)ccc3OC[C@@H]1[C@@H]2c1ccccc1	97
O=C1C=C(c2ccc(-c3ccccc3)c(F)c2)C[C@@H](c2ccc3c(c2)OCO3)C1	-16
COc1cc(S(=O)(=O)n2ccc(C)n2)ccc1Cl	-8
CCN(CC)c1ccc2nc3ccccc3[n+](CC)c2c1	99
O=C(O)C1(O)C[C@H](O)C(O)[C@@H](O)C1 (stereo not given in full)	-2
CCOc1ccccc1C(=O)NC(C(=O)NCCc1ccccn1)C(C)C (stereo not given)	-5

Looked up one by one from the list above:
mol	Mtb bLac sens
CON(C)C(=O)CC(CN(Cc1ccccc1)C(=O)OC(C)(C)C)c1ccc(Cl)cc1 (stereo not given)	-7
CCOc1cc(C(=O)Nc2ccc(S(=O)(=O)Nc3onc(C)c3C)cc2)cc(OCC)c1OCC	4
C/C(=N\NC(=O)c1cc(C)oc1C)c1ccc2ccccc2c1	-7
Cn1cccc1C1CCCN1CC(=O)Nc1ccc(F)c(F)c1F (stereo not given)	3

Going on with the list:
mol	Mtb bLac sens
NC(=O)C1CCN(c2nc(-c3ccc4c(c3)OCCO4)cs2)CC1	-3
Cc1ccc(C)c(NC(=S)N2CCC(NC(=O)c3ccco3)CC2)c1	0
CC1CCCCC12NC(=O)N(CC(=O)Nc1ccc(OC(F)F)cc1)C2=O (stereo not given)	0
Cc1ccc(C)c(N(CC(=O)NCC2CCCO2)C(=O)CCC(=O)Nc2nccs2)c1 (stereo not given)	4
CC(=O)NCCNC(=O)c1ccc2c(c1)S(=O)(=O)c1ccccc1C2=O	-3
CC(C)NC(=O)Nc1cccc2c1O[C@H](CN(C)C(=O)NC1CCCCC1)[C@@H](C)CN([C@H](C)CO)C2=O	-13
CCc1cccc2c(C(=O)CSc3nnc(C4CC4)o3)c[nH]c12	4
Cc1cc(C(=O)N2CCCC(CO)(Cc3ccc(F)cc3)C2)c(C)o1 (stereo not given)	?
CCC(C)Sc1ccc(-c2nc3cc(C)ccn3c2NC2CCCCC2)cc1 (stereo not given)	97
CC(=O)NS(=O)(=O)c1ccc(NC(=O)c2cccc(OCc3c(C)noc3C)c2)cc1	-3
O=C(COC(=O)c1ccc(Br)c(S(=O)(=O)N2CCOCC2)c1)NCCc1ccccc1	0
COc1ccc(Cl)cc1-c1nc(SCC(=O)NC2CCCC2)n[nH]1	13

Only part of the results is shown; the hit share may differ from the screen's.
